Autofluor counter: counter-screen for toxin protease inhibitors: compound fluorescence; actives 3.1% (n = 360,000); fluorescence intensity (no concentration beside the values); compound autofluorescence counterscreen, microsphere flow cytometry; active compounds read high;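 active = at least 3 SD above the mean of all compounds, about 16000 in these data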;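 note: 100 nL of 1 mM stock went into each well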
BJeLR lethal: BJeLR cell viability loss | BJeLR (HRASV12) viability, CellTiter-Glo ATP luminescence, 48 h; reference of the scale not given here | inhibition, % (concentration not given with the values) | actives 0.17% (n = 300,000);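 active = replicate mean above 50%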;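 note: 50 nL library stock added to about 25 µL; numbers are from one replicate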
Sa RN4220 lethal: kills Staphylococcus aureus RN4220; inhibition, % (concentration not given with the values); S. aureus RN4220 growth, OD600, 16 h; actives 0.33% (n = 330,000);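 active = z-score of -3 or lower and OD600 up to 0.18 on both plates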;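 note: plate controls were untreated cells for no effect and reference antibiotic for full effect; stock transfer was 100 nL into about 80 µL; one replicate is shown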
Mtb hypoxia rep: reduces hypoxia-regulated biosensor signal in M. tuberculosis; actives 0.1% (n = 300,000); fluorescence inhibition, % (concentration not given with the values); M. tuberculosis hypoxia-regulated fluorescent reporter, fluorescence;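 active = 35 to 45% if threefold the growth effect, above 45% if 1.5-fold the growth effect; inactive = the rest, general growth blockers included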;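 note: wells of about 50 µL received 100 nL stock; 0% = vehicle wells and 100% = reference inhibitor wells; whole bacteria with a GFP reporter of the hypoxia response; strong numbers were not always called active; many hits fall short of the cut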
PrP UTR inh: suppresses PrP 5' UTR mRNA reporter expression; cell-based PrP 5' UTR mRNA reporter, plate reader; inhibition, % (test concentration not listed); actives 0.35% (n = 340,000);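 active = every replicate at 50% or more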;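 note: 0 = median of the neutral control wells; tested in H4 reporter cells; numbers are from one replicate; inactives centre near -14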
Sa ugtP lethal: compounds lethal to S. aureus RN4220 ugtP deletion mutant | OD600 growth, 16 h; some inactives read as strong as hits | growth inhibition, % (test concentration not listed) | actives 0.54% (n = 330,000) | AID 1259309;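 active = z-score under -3 and OD600 up to 0.15 on both plates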;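 note: plate controls were untreated wells for no effect and antibiotic for full effect; wells of about 80 µL received 100 nL stock; the first replicate is given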
Mtb hypoxia rep growth: also measured in Mtb hypoxia rep; calls as there; growth inhibition, %; measured here: M. tuberculosis growth (absorbance);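 0% = vehicle and 100% = reference antibiotic; read after six days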
The depositor's hits bear a star; · = no result given; & = joins results of further samples. Rows were taken by chance; about 4.1% have a hit in one of these screens.

SMILES	Autofluor counter	BJeLR lethal	Sa RN4220 lethal	Mtb hypoxia rep	Mtb hypoxia rep growth	PrP UTR inh	Sa ugtP lethal
O=C(N1CCOCC1)C12CC3CC(C1)CC(c1ccccc1)(C3)C2	9118	-0.4	8.5	16.0	7.4	-28.1	-6.8
O=C(c1ccc(Cl)cc1)C1CCCN(Cc2ccc3nonc3c2)C1 (configuration not stated)	4979	2.7	·	·	·	-25.8	·
O=C(N/N=C/c1ccccc1)c1c(O)c2ccccc2[nH]c1=O	2575	13.3	·	·	·	-68.7	·
O=C1Nc2ccc(S(=O)(=O)NCc3ccco3)c3cccc1c23	3143	-15.1	-7.8	2.5	7.1	-8.6	-4.2
O=C(O)C1=C[C@@H](c2ccc3c(c2)OCO3)C[C@@H](OCCCCO)O1	3862	-2.7	·	·	·	1.2	·
CN(CC(=O)NCc1ccccc1Cl)CC(=O)Nc1ccccc1Br	6179	·	8.6	5.2	2.5	-11.9	6.7
COc1ccc(-n2cc(CNC3CCOCC3)c(-c3cccc(F)c3)n2)cc1	3536	31.4	7.0	14.4	15.0	-4.1	2.4
CC(NC(=O)CNC(=O)c1ccc2c(c1)OCO2)c1ccc(S(N)(=O)=O)cc1 (configuration not stated)	3977	·	-1.1	2.8	-3.2	-14.2	1.8
Cc1ccc(NC(=O)CCN2CC(C)OC(C)C2)cc1C (configuration not stated)	3102	-0.1	7.0	-2.8	12.4	-42.0	0.3
COc1ccc(C(=O)/C=C/Nc2ccc(S(=O)(=O)Nc3nc(C)cc(C)n3)cc2)c(OC)c1	4675	12.0	-3.1	-2.7	-1.7	-24.5	3.4
Cc1c2c(c(C)n1C)C(C(=O)NC1CCCCC1)N(Cc1ccccc1)C2=O (configuration not stated)	4335	-4.1	16.5	9.2	4.3	1.6	-74.5
Cc1nnc(SCC(=O)N2CC(=O)Nc3ccccc32)s1	4888	1.5	2.9	9.6	7.7	-13.9	4.2
Cn1cc(Br)c(C(=O)Nc2sc3c(c2C#N)CCC3)n1	4429	-5.7	2.0	-1.5	-2.6	·	1.4
Cc1ccc(N(C(=O)c2ccccc2Cl)C2=NC(C)CS2)c(C)c1 (configuration not stated)	2524	-0.7	2.0	8.6	-1.9	-48.7	88.4*
O=c1cc(CNc2cc(Cl)ccc2Cl)nc2sccn12	9058	0.8	5.3	10.2	6.1	-44.0	0.3
O=C1C2CCCN2C(c2ccncc2)N1c1ccc(Cl)c(Cl)c1 (configuration not stated)	4589	0.1	1.4	9.8	14.8	-34.0	0.2
CCCCn1nc(C(=O)Nc2ccccc2N2CCCC2)c2ccccc2c1=O	2868	·	-4.2	-3.3	-4.6	-22.4	3.5
CN(C)c1oc(-c2ccccc2[N+](=O)[O-])nc1C#N	3756	3.4	2.5	-2.4	-2.2	-7.7	0.0
COc1ccc(C(C)NC(=S)NCc2ccc(F)cc2)cc1OC (configuration not stated)	5000	-6.9	0.3	1.8	-10.7	-13.3	2.1
CCC1COCCS(=O)(=O)N1Cc1ccc(F)cc1 (configuration not stated)	2919	-4.8	-15.5	9.2	4.3	-24.9	-0.3
O=C(O)CSc1cccc[n+]1[O-]	10115	-0.6	4.7	1.2	-1.7	-13.4	1.8
C=CCn1c(SCC(=O)N2CCCCCC2)nc2ccccc2c1=O	5884	-7.4	5.4	13.3	8.6	-6.5	-0.3
CSc1nc2ccc(NS(=O)(=O)c3ccc(CNC(C)=O)cc3)cc2s1	4246	·	-4.0	6.8	5.8	-11.3	14.8
COc1cccc(N2CCN(C(=O)CN(C)S(=O)(=O)c3ccc4c(c3)CCC(=O)N4)CC2)c1	5844	·	6.0	-1.2	8.5	1.6	12.9
CCOC(=O)c1cc(Br)c(=O)n2ccccc12	2721	2.3	0.9	·	·	-6.0	6.4
CCOC(=O)C1C2COc3ccccc3C2N2C(=O)c3c(C)cc(C)cc3NC(=O)[C@@]12C (some centres not stated)	·	·	3.2	-2.5	7.6	·	-12.8
C=CCC(c1ccccc1F)N(CCN1CCOCC1)C(=O)Nc1cccc(Cl)c1 (configuration not stated)	4374	1.3	2.3	13.3	2.3	-22.4	3.2
O=S(=O)(c1cccs1)N1CCN(c2ccc(F)cc2)CC1	3190	-12.2	5.3	10.6	-4.3	-18.9	14.5
Cc1cc(NC(=O)CSc2nc(CCC3CCCC3)nc3ccccc23)no1	6335	-3.9	3.7	4.0	11.4	-19.9	-12.3
CC(=O)c1cccc(N(CC(=O)N2CCOCC2)S(C)(=O)=O)c1	6377	-1.1	1.5	-0.3	-2.5	-18.2	4.1
C[C@]12CC[C@H](OC(=O)CCC(=O)O)CC1=CCC1C2CC[C@@]2(C)C1CC[C@@H]2OC(=O)CCC(=O)O (some centres not stated)	2888	·	7.2	0.7	1.1	-6.8	15.4
CN(C(=O)c1ccc(N2CCOCC2)c([N+](=O)[O-])c1)C1CCCCC1	3827	-0.5	-3.3	-1.6	6.1	-12.4	-0.6
CCOC(=O)c1sc(NC(=O)CSCc2c(C)noc2C)nc1C	4128	·	4.8	2.1	-3.6	-23.3	-2.8
CN(Cc1cnn(C)c1)C(=O)C1CCC(=O)N(C2CCCCCC2)C1 (configuration not stated)	6006	-1.2	0.4	-0.1	-3.9	6.6	1.2
Nc1cc(Cl)ccc1N1CCCC1	4229	9.7	5.6	16.0	10.3	-27.2	-0.5
CCC(=O)N1CCc2cc(S(=O)(=O)NCCC(=O)Nc3ccc(OC)cc3)ccc21	5216	0.7	5.6	15.4	10.4	-13.0	4.4
Cc1[nH]c2ccccc2c1C(=O)CSc1ccc(Cl)cc1	2018	6.6	3.1	3.3	-5.4	-38.0	0.0
CCOc1cc(S(=O)(=O)N2CCCCC2)ccc1Cl	2665	-1.7	4.5	11.3	10.2	-12.3	-1.6
Fc1ccc(Cn2c(SCc3ccc(F)c(F)c3)nnc2C(F)(F)F)cc1	10745	-4.3	0.7	6.3	3.7	-4.5	-16.9
COc1ccc(NC(=S)N(CCCOC(C)C)C2CCN(C(C)=O)CC2)cc1Cl	4048	-0.6	0.1	0.7	3.1	2.1	1.9
Cc1ccc(S(=O)(=O)C(F)(F)F)cc1NC(=O)c1cccnc1	8303	-4.7	7.0	10.8	11.8	-27.1	0.7
CCN1CCN(c2ccc(NC(=O)c3cccc(N4CCCC4=O)c3)cc2)CC1	3547	2.0	4.0	3.6	4.1	-38.2	9.3
COc1ccc(-c2csc(N3C(=O)CNC3=S)n2)cc1	2153	-2.7	5.1	7.2	1.4	-83.5	2.9
CNS(=O)(=O)c1cc(Cl)ccc1Sc1ccccc1C(=O)O	4024	-3.6	5.5	-0.2	7.3	-58.0	10.3
OC(CNC1CCCCC1)COCCOc1ccc(Br)cc1 (configuration not stated)	2382	-2.7	1.0	17.1	6.6	-3.6	-1.3
COc1ccc(C(C)(C)C)cc1S(=O)(=O)N1CCC(C(N)=O)CC1	2477	-22.5	9.1	·	·	-22.2	-1.3
O=C(Cc1cc(=O)[nH]c(=O)[nH]1)N1CCN(C(=O)c2ccco2)CC1	5044	-1.1	-0.2	7.0	-6.1	-10.4	8.8
Cc1cccc(CC(=O)Nc2ccc(C(=O)N3CCOCC3)cc2)c1	5476	0.7	1.5	6.7	3.4	-16.3	-0.7
CCOC(=O)C1=C(C)OC(N)=C(C(=O)OCC)[C@@]12C(=O)N(CC(N)=O)c1ccccc12	4362	1.5	2.1	·	·	-2.7&-16.2	-1.3
COc1ccc(C2CC(c3ccccc3)Oc3cc(OC)c(OC)c(OC)c32)cc1 (configuration not stated)	·	·	0.8&-7.8	2.9&-1.2	9.4&0.9	·	29.8&36.8
Nc1c(C(=O)CSc2n[nH]c(-c3ccccc3Br)n2)c(=O)[nH]c(=O)n1C1CC1	8039	·	3.2	3.9	-2.2	-25.5	-5.3
CCc1ccc2c(c1)C(NC(C)=O)C(=O)N2CC (configuration not stated)	5501	8.4	2.0	11.2	6.1	14.1	6.8
CC(Oc1ccc(Cl)cc1)c1ccnn1S(C)(=O)=O (configuration not stated)	3650	3.8	-1.2	·	·	-31.9	10.1
CCC(Nc1ccc(OC)cc1)C(=O)N/N=C/c1ccc([N+](=O)[O-])cc1 (configuration not stated)	10735	-11.3	·	·	·	-21.2	·
CCn1c2ccccc2c2cc(NC(=O)C(=O)N3CCOCC3)ccc21	3940	4.0	·	·	·	-49.4	·
O=C(NCc1ccccc1)Nc1cc(Cl)ccc1Cl	3442	-11.3	-0.2	1.0	4.8	3.6	3.2
COc1ccc(Oc2c(C)oc3c(CN(C)C)c(O)ccc3c2=O)cc1	10116	0.8	1.7	4.4	6.8	-15.2	-1.7
O=C(NCC1CCCO1)C1c2ccccc2C(=O)N1C1CCCCCCC1 (configuration not stated)	2089	1.4	2.3	·	·	-10.0	2.9
CCS(=O)(=O)n1nc(-c2ccco2)nc1SC	3501	-7.3	1.6	9.1	0.9	-5.6	-1.9
Cc1[nH]nc(Nc2ccc(Br)cc2)c1[N+](=O)[O-]	5493	5.5	-4.2	3.4	-7.4	-15.0	-6.7
O=C(c1ccccc1F)c1cn(Cc2ccc(F)cc2)c2ccccc12	2365	1.3	4.6	-3.7	3.8	-2.3	-5.5

Exported with bars between the fields: entries from further up.
structure | Autofluor counter | BJeLR lethal | Sa RN4220 lethal | Mtb hypoxia rep | Mtb hypoxia rep growth | PrP UTR inh | Sa ugtP lethal
Cc1ccc(S(=O)(=O)C(F)(F)F)cc1NC(=O)c1cccnc1 | 8303 | -4.7 | 7.0 | 10.8 | 11.8 | -27.1 | 0.7
CCN1CCN(c2ccc(NC(=O)c3cccc(N4CCCC4=O)c3)cc2)CC1 | 3547 | 2.0 | 4.0 | 3.6 | 4.1 | -38.2 | 9.3
COc1ccc(-c2csc(N3C(=O)CNC3=S)n2)cc1 | 2153 | -2.7 | 5.1 | 7.2 | 1.4 | -83.5 | 2.9
CNS(=O)(=O)c1cc(Cl)ccc1Sc1ccccc1C(=O)O | 4024 | -3.6 | 5.5 | -0.2 | 7.3 | -58.0 | 10.3
OC(CNC1CCCCC1)COCCOc1ccc(Br)cc1 (configuration not stated) | 2382 | -2.7 | 1.0 | 17.1 | 6.6 | -3.6 | -1.3
COc1ccc(C(C)(C)C)cc1S(=O)(=O)N1CCC(C(N)=O)CC1 | 2477 | -22.5 | 9.1 | · | · | -22.2 | -1.3
O=C(Cc1cc(=O)[nH]c(=O)[nH]1)N1CCN(C(=O)c2ccco2)CC1 | 5044 | -1.1 | -0.2 | 7.0 | -6.1 | -10.4 | 8.8
Cc1cccc(CC(=O)Nc2ccc(C(=O)N3CCOCC3)cc2)c1 | 5476 | 0.7 | 1.5 | 6.7 | 3.4 | -16.3 | -0.7
CCOC(=O)C1=C(C)OC(N)=C(C(=O)OCC)[C@@]12C(=O)N(CC(N)=O)c1ccccc12 | 4362 | 1.5 | 2.1 | · | · | -2.7&-16.2 | -1.3
COc1ccc(C2CC(c3ccccc3)Oc3cc(OC)c(OC)c(OC)c32)cc1 (configuration not stated) | · | · | 0.8&-7.8 | 2.9&-1.2 | 9.4&0.9 | · | 29.8&36.8
Nc1c(C(=O)CSc2n[nH]c(-c3ccccc3Br)n2)c(=O)[nH]c(=O)n1C1CC1 | 8039 | · | 3.2 | 3.9 | -2.2 | -25.5 | -5.3
CCc1ccc2c(c1)C(NC(C)=O)C(=O)N2CC (configuration not stated) | 5501 | 8.4 | 2.0 | 11.2 | 6.1 | 14.1 | 6.8
CC(Oc1ccc(Cl)cc1)c1ccnn1S(C)(=O)=O (configuration not stated) | 3650 | 3.8 | -1.2 | · | · | -31.9 | 10.1
CCC(Nc1ccc(OC)cc1)C(=O)N/N=C/c1ccc([N+](=O)[O-])cc1 (configuration not stated) | 10735 | -11.3 | · | · | · | -21.2 | ·
CCn1c2ccccc2c2cc(NC(=O)C(=O)N3CCOCC3)ccc21 | 3940 | 4.0 | · | · | · | -49.4 | ·

Profiles, looked up by structure:
COc1ccc(-n2cc(CNC3CCOCC3)c(-c3cccc(F)c3)n2)cc1 is listed with Autofluor counter: 3536; BJeLR lethal: 31.4; Sa RN4220 lethal: 7.0; Mtb hypoxia rep: 14.4; Mtb hypoxia rep growth: 15.0; PrP UTR inh: -4.1; Sa ugtP lethal: 2.4
CCOC(=O)C1C2COc3ccccc3C2N2C(=O)c3c(C)cc(C)cc3NC(=O)[C@@]12C (some centres not stated) is listed with Autofluor counter: ·; BJeLR lethal: ·; Sa RN4220 lethal: 3.2; Mtb hypoxia rep: -2.5; Mtb hypoxia rep growth: 7.6; PrP UTR inh: ·; Sa ugtP lethal: -12.8

From PubChem
